Yeast UUG start: modulators of yeast start codon fidelity, primary screen, whole organism, S. cerevisiae, single point, plate reader; S. cerevisiae UUG-firefly luciferase reporter, luminescence/redox ratio; activity score, % at 18.7 µM; actives 0.13% (n = 350,000); AID 602363, 2012;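 active = replicate mean at a twofold rise or more, about +100% in these data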;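 also: firefly luciferase made from a UUG start codon reports start codon fidelity; reporter light over untreated wells divided by growth signal over untreated wells; some hits fall short of that in this replicate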
MT1-MMP act inh: blockers of MT1-MMP proenzyme processing, primary screen, HT1080 RFP-PRO-GFP cells, GFP/RFP fluorescence; GFP/RFP ratio fluorescence, overnight; percent of plate control window, DMSO zero; GFP/RFP ratio change, % at 20 µM; actives 0.061% (n = 360,000); AID 651647, 2012;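 active = GFP/RFP ratio change of at least 30% with cell ATP level not reduced by more than half and red fluorescence within 50% of control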; also: strong numbers were not always called active
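Assay system – RFP-PRO-GFP reporter HT1080 cells · Compound dosing – single dose of 20 µM compound, 1% DMSO final · Incubation – overnight compound exposure at 37 °C · Measure – GFP/RFP fluorescence ratio · Benchmarks – DMSO wells and RFP-L50D-GFP cells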
PABP FP inh: PABP poly(A) RNA binding inhibitors, primary screen, biochemical, fluorescence polarization, uHTS. Polyadenylate-binding protein 1 (Homo sapiens), P11940. inhibition, % at 35 µM. actives 1% (n = 290,000);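 active = 50% or more with normal probe brightness, or confirmed in later tests; inconclusive = above 50% with abnormal brightness, or retests that disagree; inactive = below 50% or failed in later tests; about a fifth of its hits are not listed in these tables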;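 also: calls also rest on retests at 20 µM and on dose response follow-up; controls were probe without protein and protein plus probe with vehicle; some compounds called inactive have numbers as strong as hits; many hits fall short of the cut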
Target sequence (P11940 whole entry, looked up): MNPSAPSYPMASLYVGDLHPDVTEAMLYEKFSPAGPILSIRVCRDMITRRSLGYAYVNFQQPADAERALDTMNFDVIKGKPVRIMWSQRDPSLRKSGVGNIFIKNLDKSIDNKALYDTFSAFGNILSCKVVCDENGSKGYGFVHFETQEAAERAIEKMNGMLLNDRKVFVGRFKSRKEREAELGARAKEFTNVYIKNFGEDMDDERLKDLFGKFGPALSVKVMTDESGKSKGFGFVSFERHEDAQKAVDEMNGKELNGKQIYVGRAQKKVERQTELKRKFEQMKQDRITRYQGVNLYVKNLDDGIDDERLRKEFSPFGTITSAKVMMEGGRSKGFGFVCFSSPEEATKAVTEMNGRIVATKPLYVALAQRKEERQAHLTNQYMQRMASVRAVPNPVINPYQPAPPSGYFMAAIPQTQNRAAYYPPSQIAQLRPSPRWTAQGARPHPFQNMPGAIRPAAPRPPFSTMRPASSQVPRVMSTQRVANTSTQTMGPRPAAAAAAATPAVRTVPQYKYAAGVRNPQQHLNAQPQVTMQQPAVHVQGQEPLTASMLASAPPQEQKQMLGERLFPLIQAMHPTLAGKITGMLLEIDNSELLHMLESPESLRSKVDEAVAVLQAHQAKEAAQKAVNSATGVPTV
Env fusion inh: inhibitors of HIV-1 Env-driven cell-cell fusion, primary screen, HeLa-JRFL effector, CEM21 target cells, luciferase; actives 1.1% (n = 360,000); inhibition, % at 12.3 µM;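 active = mean replicate inhibition score of at least 50 and every replicate individually at or above 50; inconclusive = only one of the two criteria met; inactive = mean below 50 and not all replicates reaching 50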;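 also: 0% = plate neutral controls and 100% = maraviroc near 300 nM; one replicate is shown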
Rce1 inhib: yeast Rce1p protease inhibitors, primary screen, biochemical, fluorescence, cell-free homogeneous; calls only; actives 0.27% (n = 290,000); CAAX prenyl protease 2 (Saccharomyces cerevisiae (strain ATCC 204508 / S288c)), Q03530; yeast membranes, quenched prenylated peptide cleavage fluorescence; AID 2563, 2010;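 active = fall in fluorescence gain of 50% or more versus controls, with final raw signal at or below 3038400; inconclusive = same 50% fall but final raw signal above 3038400; inactive = fall in fluorescence gain under 50%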;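 also: plate controls were neutral control wells for no effect and wells lacking membranes for full effect; tested at 10 µM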
CSC inhib: cancer stem cell viability inhibitors, primary screen, luminescence | cancer stem cell-like cells viability | inhibition, % at 7.5 µM | actives 1.1% (n = 300,000);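 active = mean at 75% or more and at least half the replicates too; inconclusive = mean and replicates disagree; tested in HMLE shEcad cells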;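 also: 0% = median of negative and 100% = median of positive control wells; the first replicate is given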
eIF4H inh: human eIF4H binding inhibitors, primary screen, translation initiation inhibitor project, biochemical, uHTS, fluorescence polarization; Eukaryotic translation initiation factor 4H (Homo sapiens), Q15056; eIF4H fluorescence polarization binding assay; inhibition, % at 35 µM; actives 0.94% (n = 290,000); AID 2012, 2009;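 active = 50% or more with normal probe brightness, or confirmed in later tests; inconclusive = above 50% with abnormal brightness, or retests that disagree; inactive = below 50% or failed in later tests; about a fifth of its hits are not listed in these tables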;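 also: calls also rest on retests at 20 µM and on dose response follow-up; 0% = protein and probe with vehicle and 100% = probe without protein; strong numbers were not always called active; many hits fall short of the cut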
MT1-MMP act inh RFP: further read-out of MT1-MMP act inh, marked with its call; RFP signal change, %; measured here: RFP expression control read;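 0 = vehicle wells; hits needed this value within 50% of zero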
The depositor's hits bear a star; i = inactive; ? = inconclusive; . = no result given. These rows are one share of the data (hit frequency here may not be typical).

molecule,Yeast UUG start,MT1-MMP act inh,MT1-MMP act inh RFP,PABP FP inh,Env fusion inh,Rce1 inhib,CSC inhib,eIF4H inh
O=C(Nc1ccccc1Cl)NC1(C(=O)N2CCCCC2)CCCCC1,-11,-4,3,13,.,i,-2,-7
Cn1c(=O)c2c(n(Cc3ccccc3)c1=O)NC(=O)C2CC(=O)NCc1cccc(Cl)c1 (centres undefined),-14,10,8,-2,.,i,-10,-2
CCOc1ccc2nc(SCc3ccc(F)cc3)sc2c1,.,-1,-3,-13,6,i,7,-1
COc1cccc(C(=O)Nc2ccc(S(=O)(=O)N3CCN(C)CC3)cc2)c1,-18,2,2,2,-9,i,-43,-8
COCCn1c(C)cc(C(=O)CSc2n[nH]c(N)n2)c1C,-21,2,3,36,-29,i,-20,16
COc1ccc(-c2cc3c(c4c2ccn4C)C2CCC3C2)cc1 (centres undefined),14,9,6,.,15,.,.,.
CCOC(=O)c1[nH]c2ccccc2c1NC(=O)c1ccc(S(=O)(=O)N2CCCC2)cc1,-28,0,2,-2,-18,i,-7,-3
CCOC(=O)c1c(NS(=O)(=O)c2ccc(Br)cc2)sc2c1CCC2,-7,-3,12,.,-24,i,-2,.
CCc1ccccc1NC(=S)NCc1cccn1C,-46,-1,0,-5,3,i,-3,1
CCN(CC)CCCC1(CN)OCCc2ccccc21 (centres undefined),11,2,7,17,.,i,2,0
O=C(O)/C=C/C(=O)Nc1ccc(Cl)cc1C(=O)c1ccccc1,-24,-1,-1,22,11,i,-3,-1
COc1ccc2c(CC(=O)OCC(=O)Nc3ccc(C)cc3)coc2c1,-23,-1,1,.,2,.,.,.
Cc1nnc(SCC(=O)Nc2cccc(Br)c2)s1,-14,5,5,.,2,.,-6,.
CCCCNC(=O)NNC(=O)c1cc(C)on1,.,-2,4,-6,-7,i,5,3
CC(=O)Nc1ccc(S(=O)(=O)NCCC(=O)Nc2cc(C)ccn2)cc1,.,3,0,.,2,i,.,.
Clc1ncc2[nH]cnc2n1,.,3,4,33,-24,i,-1,-9
O=[N+]([O-])c1ccccc1OCCCn1cnc2ccccc21,-12,3,-9,10,-96,i,.,7
CNC(=O)NNC(=O)c1csc(Cc2c(Cl)sc3ccc(Cl)cc23)n1,.,2,0,1,-5,i,-15,10
CCCNc1cc(C)c(C#N)c2nc3ccccc3n12,-14,0,-6,5,.,.,-8,16
N#Cc1c(NC(=O)c2cccc(S(=O)(=O)Nc3ccc(C(=O)O)cc3)c2)sc2c1CCCC2,.,4,2,49,-3,i,16,10
O=C(CSc1nc2ccccc2c(=O)n1-c1ccc(F)cc1)Nc1ccc(N2CCOCC2)cc1,.,-2,-1,-20,17,i,-12,0
CCN(C[C@H]1N[C@@](Cc2ccccc2)(C(=O)OC)[C@H]2C(=O)N(C)C(=O)[C@@H]12)C(=O)Nc1ccc(C)cc1,0,-1,3,.,-46,.,.,.
COc1cccc(C(O)c2nc(-c3cccc(NC(C)=O)c3)cs2)c1 (centres undefined),-10,1,1,.,11,.,.,.
CC(C)(C)[C@H](NC(=O)c1ccc(N)c(Cl)c1)C(=O)N1CCC[C@H]1C(=O)N[C@H](C#N)CC(=O)O,-30,1,0,.,6,.,.,.
O=C(NNS(=O)(=O)c1ccc(Br)cc1)c1ccncc1,-14,3,-2,-3,17,i,0,-7
CC(C)[C@H](NC(=O)N1CCn2c1nc1ccccc12)C(=O)NCC1CCCO1 (some centres undefined),-32,1,2,6,0,i,-13,-14
O=S(=O)(c1ccc2nc(Nc3ccccc3)ccc2c1)N1CCCCC1,87,11,0,2,4,i,50,10
COn1c(SCC(=O)N(C)C)nc2ccccc2c1=O,-9,-5,-3,0,-6,i,-22,-12
CCC(=O)c1ccc(OCC(=O)OCC(=O)N2CCc3ccccc32)cc1,-14,-1,0,.,-23,i,-1,.
Cc1ccc(NC(=O)Cc2c(C(=O)O)n(C)c3ccccc23)cc1F,.,2,2,6,-2,i,5,2
COc1ccc(CCNC(=O)CN2C(=O)NC(c3ccccc3)(c3ccccc3)C2=O)cc1,-11,1,0,.,8,.,3,.
CCC1C(=O)N=C(SCC(=O)Nc2ccc(Br)cn2)NC1=O (centres undefined),.,1,3,12,7,i,2,-4
O=C(CCCl)Nc1ccc(S(=O)(=O)NCc2ccco2)cc1,-13,4,-3,18,-2,i,9,24
COc1cc(C2/C(=C(\O)c3ccc4c(c3)CC(C)O4)C(=O)C(=O)N2Cc2ccco2)ccc1O (centres undefined),-4,4,2,-2,0,i,-2,-7
CSc1ccc(/C=N\NC(=O)CC(=O)NC(C)C)cc1,.,5,6,4,-11,i,13,2
O=C(CCc1ccccc1)NNC(=O)Cc1ccc(Cl)cc1,.,9,5,-1,13,i,-12,-10
Cn1c(CCNC(=O)c2ccco2)nc2cc(NC(=O)c3ccccc3Cl)ccc21,-18,3,3,0,-1,i,-3,-7
Cc1ccc(C(=O)COc2ccccc2N2C(=O)c3ccccc3C2=O)cc1,.,0,4,-7,-7,i,-10,-5
C=CCOc1cccc(/C=N/NC(=O)C(=O)NCc2ccco2)c1,.,0,1,1,.,i,11,-3
C/C(=N\OC(=O)NC(C)C)c1sc(-c2ccc(Cl)cc2)nc1C,-17,3,-3,2,.,i,-5,0
Cc1cc2ncn(-c3ncnc4sc5c(c34)CCCC5)c2cc1C,.,.,.,-5,.,i,3,-2
CCOC(=O)c1c(N2C(=O)Nc3ccccc3N2O)sc2c1CCCCC2,.,-1,7,-6,4,i,-2,-4
CC(C(=O)Nc1ncn[nH]1)N1C(=O)c2ccccc2C1=O (centres undefined),-11,2,4,?,.,i,.,-5
Cc1c(C)n(C)c2ccc(C(=O)NCCN3CCOCC3)cc12,-30,2,2,5,0,i,-5,3
COc1ccc(-c2cc(=O)oc3cc(OCC(=O)N(C)C)ccc23)cc1,-1,-8,-3,1,-5,i,9,-8
Cc1ccc(S(=O)(=O)N2CCN(S(=O)(=O)N3CCCCC3)CC2)cc1C,-12,-1,0,-3,-12,i,-12,3
CCOc1nc2ccccc2nc1C,-20,2,1,-1,.,i,-2,6
c1ccc(-c2ccccn2)nc1,-16,-2,1,0,.,i,4,-2
Cc1ccc(S(=O)(=O)N2CCOCC2)cc1NC(=O)CNC(C)c1ccccc1 (centres undefined),4,1,-2,.,?,.,-4,.
CCOC(=O)C(C(=O)OCC)C(Nc1cccc(Br)c1)c1ccccc1 (centres undefined),-14,3,-13,-5,-91,.,.,-9
COc1cc(/C=N/NC(=O)c2cc(-c3cccc(OC(C)C)c3)nc3ccccc23)ccc1O,-21,1,-3,.,17,i,32,.
S=c1nccc(-c2cccs2)[nH]1,-11,5,7,6,3,.,1,-8
CCOc1ccc(NC(=O)CN(C)C(=O)c2ccccc2OCc2c(C)noc2C)cc1OCC,.,3,5,.,-4,i,-5,.
O=C(N/N=C/C(Cl)=C\c1ccccc1)c1ccco1,-10,5,2,-2,-145,i,-6,8
CC(C)(C)c1cc(CCC(=O)NCc2ccncc2)cc(C(C)(C)C)c1O,-7,-7,0,-2,.,i,-3,-12
CC1=C(C(=O)Nc2cc(C)ccc2C)C(c2cccs2)NC(=S)N1 (centres undefined),-26,5,3,2,19,i,-10,2
Cc1ccc(S(=O)(=O)N2CCC(=O)N(C(COCc3cccc(Cl)c3)C(C)C)CC2)cc1 (centres undefined),-7,-2,-5,-2,44,i,-17,-4
S=c1[nH]nc(COc2ccc(Cl)cc2)n1Cc1ccccc1,.,1,-6,-1,-16,i,7,-10
CC(C)(C)NC(=S)N/N=C/c1cccnc1,.,0,2,-10,-8,i,-4,-10
Cc1ccc(S(=O)(=O)NCCc2nnc3ccc(SCC(=O)Nc4nc(C)cs4)nn23)cc1,.,-1,1,6,-10,i,1,-2

More entries:
molecule,Yeast UUG start,MT1-MMP act inh,MT1-MMP act inh RFP,PABP FP inh,Env fusion inh,Rce1 inhib,CSC inhib,eIF4H inh
O=C(O)CCN(Cc1ccccc1)S(=O)(=O)c1c(Cl)cccc1Cl,-9,5,3,-1,4,i,-21,-10
CC(C)CN1CCC(=O)NC1=S,-16,1,4,.,6,.,.,.
CC(C)(CNC(=O)c1ccc(S(=O)(=O)Nc2ccc(Cl)cc2)cc1)N1CCOCC1,-8,3,-5,.,5,.,.,.
Cn1c(O)c(N=Nc2ccc(F)cc2)c2ccccc21,-18,-6,0,0,-4,i,6,2
CCOc1cc(/C=N/O)ccc1OCc1ccccc1F,.,-6,-3,5,.,i,8,1
C=CC[C@@H](CC(=O)N[C@H](CO)Cc1ccccc1)C(=O)N[C@@H](COC(=O)[C@@H](CC=C)CC(=O)OC(C)(C)C)Cc1c[nH]c2ccccc12,-3,0,-6,.,-204,.,-18,.
NC(=O)CC(NC(=O)c1ccccc1)c1ccc(N2CCC(Cc3ccccc3)CC2)c([N+](=O)[O-])c1 (centres undefined),-7,15,-29,15,87*,i,-11,-3
CCOC(=O)c1ccc(NC(=O)C2CC2)cc1,-26,10,-2,2,-55,i,.,-3
COc1ccccc1NS(=O)(=O)c1cc(NC(=O)C(C)C)ccc1N1CCCCC1,.,-3,-19,?,-4,i,-5,-5

Compounds from the list above with fluorine:
molecule,Yeast UUG start,MT1-MMP act inh,MT1-MMP act inh RFP,PABP FP inh,Env fusion inh,Rce1 inhib,CSC inhib,eIF4H inh
CCOc1ccc2nc(SCc3ccc(F)cc3)sc2c1,.,-1,-3,-13,6,i,7,-1
O=C(CSc1nc2ccccc2c(=O)n1-c1ccc(F)cc1)Nc1ccc(N2CCOCC2)cc1,.,-2,-1,-20,17,i,-12,0
Cc1ccc(NC(=O)Cc2c(C(=O)O)n(C)c3ccccc23)cc1F,.,2,2,6,-2,i,5,2
Cn1c(O)c(N=Nc2ccc(F)cc2)c2ccccc21,-18,-6,0,0,-4,i,6,2
CCOc1cc(/C=N/O)ccc1OCc1ccccc1F,.,-6,-3,5,.,i,8,1

Laid out differently: four of the compounds above
> O=C(O)CCN(Cc1ccccc1)S(=O)(=O)c1c(Cl)cccc1Cl
- Yeast UUG start = -9
- MT1-MMP act inh = 5
- MT1-MMP act inh RFP = 3
- PABP FP inh = -1
- Env fusion inh = 4
- Rce1 inhib = i
- CSC inhib = -21
- eIF4H inh = -10

> C=CC[C@@H](CC(=O)N[C@H](CO)Cc1ccccc1)C(=O)N[C@@H](COC(=O)[C@@H](CC=C)CC(=O)OC(C)(C)C)Cc1c[nH]c2ccccc12
- Yeast UUG start = -3
- MT1-MMP act inh = 0
- MT1-MMP act inh RFP = -6
- PABP FP inh = .
- Env fusion inh = -204
- Rce1 inhib = .
- CSC inhib = -18
- eIF4H inh = .

> CC(C)(CNC(=O)c1ccc(S(=O)(=O)Nc2ccc(Cl)cc2)cc1)N1CCOCC1
- Yeast UUG start = -8
- MT1-MMP act inh = 3
- MT1-MMP act inh RFP = -5
- PABP FP inh = .
- Env fusion inh = 5
- Rce1 inhib = .
- CSC inhib = .
- eIF4H inh = .

> Cn1c(O)c(N=Nc2ccc(F)cc2)c2ccccc21
- Yeast UUG start = -18
- MT1-MMP act inh = -6
- MT1-MMP act inh RFP = 0
- PABP FP inh = 0
- Env fusion inh = -4
- Rce1 inhib = i
- CSC inhib = 6
- eIF4H inh = 2
